gsp antagonist = qHTS for Antagonists of gsp, the Etiologic Mutation Responsible for Fibrous Dysplasia/McCune-Albright Syndrome: qHTS; gsp-mutant cells, cAMP HTRF, 30 min; control for the full effect not named in the record; Potency, µM (titrated, usually from 76.9 µM), for the others: at the top dose activity change, negative = inhibition, hits mostly inhibitors; 0.4% of 340,000 active; active = falling curve of any shape with a large fitted effect; inconclusive = falling curve, mostly with a smaller effect; inactive = flat or rising curve; cell line not stated here;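 also: intracellular cAMP measured with PDE inhibitor Ro 20-1724 present during compound exposure; potency is read from the fitted curve at half-maximal effect; % is scaled to controls: 0 for no effect and ±100 for the full control effect; nearly all actives have a fitted effect of over 65% in size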
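HTRF cAMP read-out (cAMP-d2 plus anti-cAMP antibody-K in lysis buffer, 30 min RT). Before lysis, cells are exposed to compounds with […] for 30 min at 37C in DPBS containing Ca/Mg, BSA and Tween 20.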
PINK1 modulator = A Quantitative High throughput Screen to Identify Chemical Modulators of PINK1 Expression | 0.2% of 410,000 active | Potency, µM (top dose mostly 76.6 µM), inactives show top-dose activation (PINK1 increase), actives largely listed as activators | AID 624263, 2012 | PINK1 immunofluorescence, high-content cytometry, 24 h; active = well fitted activation curve with a large enough effect; inconclusive = small, poorly fitted or top-dose-only effect; inactive = flat fitted curve, though single readings scatter; cell line not stated here;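 also: potency is read from the fitted curve at half-maximal effect; % of control where 0% means no effect; nearly all actives have a fitted effect of over 65% in size; a mitochondrial uncoupler was the plate control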
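Stable cell line treated 24 h with compounds at 5 concentrations (CCCP controls), then fixed and immunostained for PINK1 plus nuclear and cell stains; PINK1 immunofluorescence quantified by laser-scanning microplate cytometry.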
ClpP mod = qHTS Assay for Activators of ClpP; 1.9% of 340,000 active; purified B. subtilis ClpP, FRET peptide cleavage, 20 min; Potency, µM (top dose mostly 57.5 µM), without a hit: at the top dose activity change, negative = active; active = well fitted falling curve with a large enough effect; inconclusive = small, poorly fitted or top-dose-only effect; inactive = no such curve, though single readings can be large or run the other way; also: potency is read from the fitted curve at half-maximal effect; the source files actives as falling curves though it sought activators and does not explain the sign; nearly all actives have a fitted effect of over 65% in size; many hits overshoot -100%
Target sequence (P80244 whole entry, looked up): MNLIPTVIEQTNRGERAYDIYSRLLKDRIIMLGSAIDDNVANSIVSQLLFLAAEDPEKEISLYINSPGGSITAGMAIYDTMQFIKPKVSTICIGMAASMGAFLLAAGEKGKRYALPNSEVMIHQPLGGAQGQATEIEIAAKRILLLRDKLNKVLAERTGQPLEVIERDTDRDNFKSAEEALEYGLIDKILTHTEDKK
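Purified B. subtilis ClpP, 10 microg/mL final in Tris/HCl pH8 with KCl, BSA, glycerol and Tween-20, cleaved an Abz/nitrotyrosine-quenched decapeptide. Fluorescence (ex 320, em 430) was read at 0 and 20 min at room temperature. Delta was normalized to 5.8 microM ADEP and DMSO/no-enzyme controls.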
Sfp PPTase inh = qHTS Assay for Inhibitors of Bacillus subtilis Sfp phosphopantetheinyl transferase (PPTase); 4'-phosphopantetheinyl transferase ffp (Bacillus subtilis), Q9F4F7; Potency, µM, inactives show max response, negative = inhibition, usual class: inhibitors; AID 1490, 2009; 3.5% of 310,000 active; Biochemical Sfp PPTase activity, qHTS; active = well fitted inhibition curve with a large enough effect; inconclusive = small, poorly fitted or top-dose-only effect, or another doubt; inactive = no such curve, though single readings can be large or run the other way;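 also: the enzyme is Sfp with the accession as filed and its product quenches rhodamine fluorescence; potency is read from the fitted curve at half-maximal effect; 0% = enzyme reaction without inhibitor and -100% = no enzyme wells; top concentration of the series not given in the record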
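Buffer: 50 mM Hepes-Na pH 7.6, 10 mM MgCl2, 0.01% Nonidet P-40, 0.01% BSA. Enzyme 15 nM, pre-exposed to compound 15 min; substrates then added and fluorescence change tracked over 30 min.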
Menin-MLL FL inh = qHTS Assay for Inhibitors Targeting the Menin-MLL Interaction in MLL Related Leukemias: Competition With Fluorescein Labeled MLL-derived Peptide; Fluorescence polarization, fluorescein-MLL peptide displacement from menin; FP activity change, % at 61.4 µM; 290,000 tested, under 10 active; inconclusive = falling polarisation curve, or a change in total fluorescence; inactive = total fluorescence flat and polarisation flat or rising; no compound was filed as active; the % refers to the polarisation; negative = inhibition;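 also: % of control where 0% means no effect; inhibitors lower the polarisation; unlabelled MLL peptide was the positive control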
D2 agonist = Beta-Arrestin HTS for Positive Allosteric Modulators of the Human D2 Dopamine Receptor: Agonists. D(2) dopamine receptor (Homo sapiens), P14416. DiscoveRx PathHunter D2 beta-arrestin, luminescence, 90 min; 100% = 57 uM dopamine signal. activation, % (concentration not given with the values). 0.084% of 360,000 active; in the data active = activation above about 40%; inconclusive = about 15% to 40%; inactive = below about 15%; also: compound concentration not given in the record; the text of the record calls up to 30% inactive
Target sequence (P14416 whole entry, looked up): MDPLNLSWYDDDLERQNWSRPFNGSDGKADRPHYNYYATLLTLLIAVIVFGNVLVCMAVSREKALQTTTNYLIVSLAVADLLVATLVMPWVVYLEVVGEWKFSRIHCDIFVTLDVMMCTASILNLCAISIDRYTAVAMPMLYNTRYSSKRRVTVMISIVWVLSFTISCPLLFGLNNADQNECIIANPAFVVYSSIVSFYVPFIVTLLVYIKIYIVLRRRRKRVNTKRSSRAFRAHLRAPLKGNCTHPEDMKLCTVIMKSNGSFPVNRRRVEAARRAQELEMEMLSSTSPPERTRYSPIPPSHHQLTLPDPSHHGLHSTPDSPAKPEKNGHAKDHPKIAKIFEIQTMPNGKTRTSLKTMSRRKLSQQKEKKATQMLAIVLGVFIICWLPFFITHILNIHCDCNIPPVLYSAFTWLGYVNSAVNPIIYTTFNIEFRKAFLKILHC
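Agonist mode: compounds alone added to overnight-plated D2 PathHunter cells for 90 min at 37 C, with 57 uM final dopamine (EC100) defining full response. Beta-arrestin recruitment detected by chemiluminescent reagent, read after 1 h at ambient temperature.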
gsp agonist = qHTS for Agonist of gsp, the Etiologic Mutation Responsible for Fibrous Dysplasia/McCune-Albright Syndrome: qHTS | Potency, µM (titrated, usually from 76.9 µM), without a hit: top-dose activation (cAMP increase), actives largely listed as activators | 0.13% of 340,000 active | AID 624287, 2012 | gsp mutant cells, cAMP HTRF, 30 min; control for the full effect not named in the record; active = well fitted activation curve with a large enough effect; inconclusive = small, poorly fitted or top-dose-only effect, or another doubt; inactive = no such curve, though single readings can be large or run the other way; cell line not stated here;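 also: phosphodiesterase inhibitor Ro 20-1724 added with compounds to block cAMP breakdown; potency is read from the fitted curve at half-maximal effect; nearly all actives have a fitted effect of over 60% in size; about a fifth of the inactives were tested at one dose only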
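Cells stably selected in G418 were plated at 2000/well, grown 16-24 hr, then given compounds in DMSO with the PDE inhibitor […] (300 uM solution added) for 30 min at 37C; cAMP was read by HTRF.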
Starred values were filed as active, the others as inactive; ? = inconclusive; . = no result given; & = joins results of further samples; [ ] = another dose, or the depositor's remark.

SMILES	gsp antagonist	PINK1 modulator	ClpP mod	Sfp PPTase inh	Menin-MLL FL inh	D2 agonist	gsp agonist
C[C@H]1CN([C@@H](C)CO)S(=O)(=O)c2ccc(Br)cc2O[C@@H]1CN(C)C(=O)Nc1ccc2c(c1)OCO2	.	0.2%	-2.8%	.	.	-1.0	28%
COc1ccc(-c2noc(CCC(=O)Nc3cccnc3)n2)cc1	13%	2.7%	0.5%	19%	-0.1	-0.5	-15%
CSc1ncnc2ncn(C)c12	10%	6.1%	.	.	.	3.1	?
CC1(C)SC(=S)N(Cc2ccc3c(c2)OCO3)C1N(O)C(=O)NC1CCCCC1 (stereo not drawn)	-13%	8.9%	-4.2%	25%	2.1	3.7	?
COc1ccc(-c2cc(O)cc(O)c2)cc1	4%	7.1%	-4.6%	16%	-0.8	-7.5	-14%
Cc1ccc(NC(=O)CN2CCOCC2)cc1S(=O)(=O)N1CCCCC1	4%	1.4%	0.1%	.	.	2.0	-3%[15.4 µM]
Cc1cccc(-c2nnc(SCC(=O)NC3CC3)n2C)c1	-1%	-0.8%	-0.6%	27%	.	1.8	31%
O=C(NNC(=S)NC1CC2CCC1C2)c1ccc(Cl)cc1 (stereo not drawn)	-2%	?	.	0%	0.0	-5.8	2%
COc1ccc(OCCCn2c(=O)oc3ccccc32)cc1	?	1.8%	0.6%	5%	-1.2	-1.3	0%
COc1ccccc1NS(=O)(=O)c1cccc(C(=O)NNC(=O)c2ccc(NC(C)=O)cc2)c1	22%	2.7%	1.5%	.	.	-2.0	12%
Cc1ccc(CCN2CC(C(=O)NCc3ccco3)CC2=O)cc1 (stereo not drawn)	2%	-2.5%	-1.3%	-21%	3.5	-15	-4%
CCOc1ccc(-n2nnnc2SCC(=O)c2ccccc2)cc1	-4%	11%	0.4%	1%	-1.6	0.0	-6%
CN1CCC(N(C)C(=O)c2cccc(S(=O)(=O)N3CCc4ccccc43)c2)CC1	-2%	-1.7%	.	.	.	-1.3	-38%[inhibitor]
Cc1cccc(NC(=S)NCC23C=CC(O2)C2C(=O)N(c4ccc(Cl)cc4)C(=O)C23)c1 (stereo not drawn)	1%	-1.1%	-3.7%	35µM*	5.8	1.9	?
O=S1(=O)[C@H]2C[C@@H]3C=C[C@@]2(CN1Cc1cccc(C(F)(F)F)c1)O3	-2%	0.2%	0.2%&1.8%	10%	-1.6	-0.9	-12%
CC(=O)c1cc(C#N)c(NCc2ccccc2)nc1C	.	2.1%	.	26%	0.8	3.5	4%[15.4 µM]
CC(=O)NCCn1c(SCC(=O)NCCc2ccc(S(N)(=O)=O)cc2)nc2ccccc2c1=O	4%	0.2%	.	12%	2.3	-0.7	14%
Cc1ccc(N=Cc2cccc(O)c2O)c(C)c1	.	0.5%	1.8%	3.5µM*	8.8	.	.
Cc1cccc(CSc2nnc(-c3ccco3)o2)c1	-6%	0.4%	1.2%	28µM*	5.2	-0.9	1%
CCN(CC(=O)Nc1ccccc1OC)C(=O)CN1C(=O)NC(C)(c2ccccc2)C1=O (stereo not drawn)	9%	1.1%	-0.8%	.	.	-1.2	-20%
C=CCn1c(-c2ccoc2)n[nH]c1=S	5%	-3.4%	32µM*	-27%	-1.6	-2.6	28%
COc1ccc(NC(=O)c2ccc3c(c2)OCO3)cc1Cl	-8%	7.6%	62%	-2%	-1.3	-4.1	?
CC1CCCCC1NCC(=O)Nc1ccccc1C(=O)Nc1ccccc1 (stereo not drawn)	0%	5.8%	-1.4%	.	.	-2.1	-2%[15.4 µM]
C=CCNC(=O)/C(C#N)=C/c1cn(-c2ccccc2)nc1-c1ccc(OC)c([N+](=O)[O-])c1	-22%	5.8%	40%	-13%	-2.0	2.3	19%
O=S1(=O)N=C(N(CCO)/N=C/c2ccccc2F)c2ccccc21	-5%	2.7%	.	8%	2.6	-0.3	1%
The list goes on:
SMILES	gsp antagonist	PINK1 modulator	ClpP mod	Sfp PPTase inh	Menin-MLL FL inh	D2 agonist	gsp agonist
N#CCCN(C(=O)c1ccc2c(=O)n3c(nc2c1)CCCCC3)c1ccccc1	-4%	0.7%	0.6%	22%	.	-4.0	?
COc1cccc(CNC(=O)N2CCN(c3ccccc3Cl)CC2)c1	-1%	-1.1%	.	12%	-0.2	-2.6	-3%
Cc1csc(=O)n1CC(=O)OCC(=O)Nc1ccc(C(N)=O)cc1	12%	-0.6%	0.5%	.	.	-1.0	23%
Cc1sc2ncn(CC(=O)NCCCC(=O)NCc3ccc(F)cc3)c(=O)c2c1C	3%	1.2%	.	-19%	-3.4	1.4	2%
Cc1cc[n+](-c2[nH]c(=O)sc2/C=N/N=C(\[O-])c2ccccc2)cc1C	5%	1.3%	-10%	-17%	?	-1.3	-7%[15.4 µM]
CCC(C)NC(=O)c1ccc([N+](=O)[O-])c(Cl)c1 (stereo not drawn)	-1%	-1.1%	-0.3%	2%	2.0	-4.3	15%
O=C(N/C(=C\c1ccc(F)cc1)C(=O)N1CCCCCC1)c1ccccc1	0%	0.6%	-0.5%	17%	-7.4	6.8	26%[15.4 µM]
Cc1cn([C@H]2C[C@H](O)[C@@H](COS(=O)(=O)O)O2)c(=O)[nH]c1=O	4%	-0.2%	-3.9%	.	.	-3.2	.
COc1ccccc1NC(=O)c1cnc(SCC(=O)NCCc2ccccc2)n(C)c1=O	15%	3.8%	-3.5%	.	.	-4.3	?
CCc1ccccc1NC(=O)CCc1nc(-c2ccc(C)cc2)no1	-27%	15%	0.8%	14%	3.9	-3.5	-3%
CCOC(=O)c1c(C)[nH]c(N=Nc2ccc(C)cc2C)c1C	0%	2.6%	-3.6%	?	1.1	-2.7	-39%[inhibitor]
CSCc1c(C(=O)Nc2ccc3c(c2)OCO3)oc2ccccc12	-16%	0.8%	.	-1%	-3.1	-1.5	28%
COc1ccc(C2N(c3ccc(OC)cc3)C(=S)N3CCCN23)cc1 (stereo not drawn)	7%	1.1%	-0.8%	5%	-0.5	-0.9	-27%
CCCCN1C(=O)C(CC(=O)NC2CC2)CC(C(=O)N(CC)CC)=C1C (stereo not drawn)	.	1.7%	0.9%	.	.	-7.2	9%
O=C(Cc1ccc([N+](=O)[O-])cc1)N/N=C/c1cccs1	-1%	2.0%	-1.3%	12%	-0.6	-2.1	-5%
O=C(c1ccccc1)C(Cn1cncn1)C(Sc1ccccc1)c1ccccc1 (stereo not drawn)	?	4.0%	1.2%	-5%	2.7	1.1	-17%
COc1ccc(NC(=S)NC(NC(=O)c2cccc(Cl)c2)C(Cl)(Cl)Cl)c([N+](=O)[O-])c1 (stereo not drawn)	?	?	1.7%	16%	1.6	-0.3	-34%
CCOc1ccc2[nH]c(=O)c(CN(CCO)C(=O)CC)cc2c1	16%	0.2%	28µM*	6%	1.1	-4.6	-1%
CCCCCCn1c(COc2ccccc2F)nnc1SCC(=O)N1c2ccccc2NC(=O)C1(C)C	-16%	-6.6%[38.3 µM]	0.4%	2%	6.3	1.1	-35%
N#CCCn1c(=O)c(-c2cc(F)cc(F)c2)nc2cnc(Nc3ccccc3)nc21	.	0.4%	.	13%	?	.	.
CC(C)(C)C(=O)COC(=O)c1cccc(NC(=O)c2ccco2)c1	-11%	3.2%	-5.4%	19%	0.7	-1.1	-43%[inhibitor]
CCOCCCN(CC(=O)NC1CCCC1)C(=O)C(=O)Nc1ccc2c(c1)OCCO2	9%	-1.3%	.	20%	-12	1.2	-30%[inhibitor]
CC(C)(C)N1C(=O)c2c(C(=O)OCc3ccccc3)[nH]c(-c3ccccc3)c2C1=O	.	10%	5.4%	.	.	-4.5	.
Cc1n[nH]c(C)c1S(=O)(=O)N1CCc2ccccc2C1	2%	1.9%	-1.5%	-7%	.	-0.1	5%
Cc1cc(C)n2nc(SCC(=O)N(C)C)nc2n1	6%	1.4%	-9.6%	7%	-2.4	-1.9	26%
(further entries)
SMILES	gsp antagonist	PINK1 modulator	ClpP mod	Sfp PPTase inh	Menin-MLL FL inh	D2 agonist	gsp agonist
O=C(COC(=O)C1CC1)Nc1ccccc1Sc1ccccc1	12%	1.5%	1.2%	4%	5.8	-0.9	28%
Cc1cccnc1NC(=O)c1ccc(C(=O)c2ccccc2)cc1	3%	9.4%	2.7%	.	.	?	-2%
CN(C)c1ccc(S(=O)(=O)N2CCCCC2)cc1NC(=O)COc1ccccc1F	-10%	1.9%	-0.1%	-3%	0.7	-1.8	-6%
COc1ccc(-n2nc3c(N4CCC(C(=O)NCc5ccco5)CC4)nnc(C)c3c2C)cc1	5%	-2.0%	-10%	-9%	.	-4.8	14%
CCCCOc1ccc(-c2ncc(N)cn2)cc1	4%	18%	3.9%	6%	-2.9	-2.0	-26%
O=C(NCc1cccc(C(F)(F)F)c1)C1CCCN(c2ncccn2)C1 (stereo not drawn)	12%	15%[38.3 µM]	-21%	-4%	0.6	-3.4	18%
C=CCn1c(CCCOc2ccc(Cl)cc2Cl)nnc1SCC(=O)Nc1nccs1	-11%	5.2%	3.5%	14%	6.2	-1.4	1%
C/C(=N\NC(=O)C(c1ccccc1)c1ccccc1)c1ccc(O)cc1	-3%	1.0%	-4.5%	7%	-2.7	-4.1	?
CCOC(=O)c1[nH]c2ccc(OC)cc2c1NC(=O)NC(C)C	-1%	0.4%	18µM*	2%	3.7	-3.5	-12%
COc1ccc(S(=O)(=O)N2CCC(C(=O)Nc3ccc(OC)c(OC)c3)CC2)cc1C	-14%	11%	1.3%	.	.	-4.9	-34%[inhibitor]
O=C(Nc1ccc(Cc2ccncc2)cc1)c1cccs1	-11%	1.8%	1.5%	16%	-3.7	1.2	15%
Cc1nnc(SCc2ccccc2)n1N	9%	1.6%	?	14%	-1.2	0.3	7%

Compounds as they come. About 5.1% of those tested had a hit in this group.
